2A StopGo = High Throughput Screening for Foot and Mouth Disease Virus Antivirals. AID 1159524, 2015. human cells with a luciferase reporter of 2A StopGo recoding; control for the full effect not named in the record. actives 1.2% (n = 410,000). Potency, µM (titrated, usually from 57.9 µM), inactives show top-dose signal change, negative = less light; active = well fitted falling curve with a large enough effect; inconclusive = small, poorly fitted or top-dose-only effect; inactive = no such curve, though single readings can be large or run the other way; tested in HEK293T cells; also: % is scaled to controls: 0 for no effect and ±100 for the full control effect; nearly all actives have a fitted effect of over 45% in size; luciferase light after 4 h
MARV entry inh = qHTS for inhibitors of binding or entry into cells for Marburg Virus; Marburg virus pseudotyped entry inhibition, cell reporter; control for the full effect not named in the record; about a third of the inactives were read at about 46 µM; actives 1.8% (n = 300,000); Potency, µM (doses to about 37.8 µM), without a hit: top-dose activity change, negative = inhibition, usual class: inhibitors; AID 540276, 2011; active = well fitted inhibition curve with a large enough effect; inconclusive = small, poorly fitted or top-dose-only effect, or effect the other way; inactive = flat fitted curve, though single readings scatter; tested in HEK293 cells; about a fifth of its hits are not listed in these tables; also: % is scaled to controls: 0 for no effect and ±100 for the full control effect; luciferase read-out
Cruzain Triton = qHTS Assay for Promiscuous and Specific Inhibitors of Cruzain (with detergent); actives 0.43% (n = 200,000); AID 1478, 2009; Cruzipain (Trypanosoma cruzi), P25779; Potency, µM, for the others: max response, negative = inhibition, hits mostly inhibitors; purified cruzain, Z-FR-AMC fluorescence, 0.01% Triton; active = well fitted curve in the direction sought with a large enough effect; inconclusive = small, poorly fitted or top-dose-only effect, or another doubt; inactive = no such curve, though single readings can be large; an effect the other way counts as inactive or inconclusive;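 also: plate controls were neutral wells for no effect and buffer without enzyme for full effect; nearly all actives have a fitted effect of over 40% in size; top concentration of the series not given in the record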
Target sequence (P25779 123-467 limits assumed): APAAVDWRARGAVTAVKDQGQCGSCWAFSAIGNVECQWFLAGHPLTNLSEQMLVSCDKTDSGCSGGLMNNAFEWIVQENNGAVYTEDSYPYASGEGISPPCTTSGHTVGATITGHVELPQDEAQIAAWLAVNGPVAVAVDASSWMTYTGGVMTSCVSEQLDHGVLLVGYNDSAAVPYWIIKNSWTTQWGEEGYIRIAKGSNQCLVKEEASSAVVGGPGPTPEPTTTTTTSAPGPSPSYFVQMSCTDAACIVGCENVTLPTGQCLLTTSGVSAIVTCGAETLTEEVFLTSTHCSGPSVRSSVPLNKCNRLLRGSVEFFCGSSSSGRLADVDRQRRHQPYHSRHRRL
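Sodium acetate buffer (100 mM, pH 5.5) containing 5 mM DTT and 0.01% Triton X-100 hosted 1.5 nM cruzain and test compound for 15 min at room temperature. Cleavage of 2 uM Z-FR-AMC was then tracked by fluorescence.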
LASV entry inh = qHTS for Inhibitors of binding or entry into cells for Lassa Virus | Lassa virus pseudotype entry inhibition, cell reporter; control for the full effect not named in the record | actives 1.2% (n = 300,000) | AID 540256, 2011 | Potency, µM (titrated, usually from 37.9 µM), without a hit: at the highest dose activity change, negative = inhibition, actives largely listed as inhibitors; active means well fitted inhibition curve with a large enough effect; inconclusive means small, poorly fitted or top-dose-only effect, or effect the other way; inactive means flat fitted curve, though single readings scatter; tested in HEK293 cells; also: % is scaled to controls: 0 for no effect and ±100 for the full control effect; nearly all actives have a fitted effect of over 50% in size; luciferase read-out
SARS PLpro yeast = qHTS of Yeast-based Assay for SARS-CoV PLP; AID 485353, 2010; S. cerevisiae expressing SARS-CoV PLpro, growth rescue; control for the full effect not named in the record; actives 0.19% (n = 330,000); Potency, µM (highest dose often 32.9 µM), inactives show at the highest dose activity, positive = growth rescue; also: 0% is about no effect; nearly all actives have a fitted effect of over 55% in size; growth read by luminescence after 48 h
RE007 growth inh = qHTS Assay for Inhibitors of the HIV-1 protein Vpr. S. pombe RE007 Vpr strain, BacTiter-Glo ATP luminescence, 24 h; control for the full effect not named in the record. Potency, µM (series often up to 92.2 µM), without a hit: at the top dose activity change, negative = less growth. actives 0.21% (n = 360,000); active = well fitted falling curve with a large enough effect; inconclusive = small, poorly fitted or top-dose-only effect; inactive = no such curve, though single readings can be large or run the other way;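 also: % is scaled to controls: 0 for no effect and ±100 for the full control effect; nearly all actives have a fitted effect of over 50% in size; the assay follows cell death caused by Vpr and the record does not say whether a fall means rescue or toxicity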
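Fission yeast RE007 carrying one integrated HIV-1 vpr copy, seeded at OD 0.01 in PMG+AL medium with 23 nL pinned compound. Grown 24 h at 30 degrees; viability read by BacTiter-Glo luminescence after 5 min.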
Cruzain noTriton = qHTS Assay for Promiscuous and Specific Inhibitors of Cruzain (without detergent). AID 1476, 2009. Potency, µM, for the others: max response, negative = inhibition, actives largely listed as inhibitors. Cruzipain (Trypanosoma cruzi), P25779. purified cruzain, Z-FR-AMC fluorescence, no detergent. actives 2.3% (n = 200,000); active = well fitted curve in the direction sought with a large enough effect; inconclusive = small, poorly fitted or top-dose-only effect, or another doubt; inactive = no such curve, though single readings can be large; an effect the other way counts as inactive or inconclusive;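 also: plate controls were enzyme without inhibitor for no effect and buffer without enzyme for full effect; nearly all actives have a fitted effect of over 40% in size; top concentration of the series not given in the record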
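Purified cruzain at 1.5 nM, pre-incubated 15 min with compound at room temperature in 100 mM sodium acetate pH 5.5, 5 mM DTT, 0.00005% Triton X-100. Reaction started with 2 uM Z-FR-AMC; AMC fluorescence increase over 60 s gives rate.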
NS1 function inh = qHTS Assay for Inhibitors of Influenza NS1 Protein Function; actives 0.4% (n = 270,000); AID 2326, 2010; S. cerevisiae slowed by influenza A NS1, growth recovery by OD600; Potency, µM (titrated, usually from 46.1 µM), without a hit: at the highest dose activity, positive = more growth; also: actives are rising curves; nearly all actives have a fitted effect of over 50% in size
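Growth recovery, yeast-based: influenza A NS1 expressed in S. cerevisiae causes slow growth, and suppressors are detected by OD600. The parent strain without NS1 is used as positive control.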
* = called active by the depositor; ? = inconclusive; . = no result given; & = joins results of further samples; [ ] = remark or other dose. Unless noted, calls follow the shape of the dose curve; as a rule, active means well fitted rising curve with a large enough effect; inconclusive means small, poorly fitted or top-dose-only effect; inactive means no such curve, though single readings can be large or run the other way. Potency is read from the fitted curve at half-maximal effect.

SMILES	2A StopGo	MARV entry inh	Cruzain Triton	LASV entry inh	SARS PLpro yeast	RE007 growth inh	Cruzain noTriton	NS1 function inh
Cc1ccc(S(=O)(=O)N[C@H](C(=O)OCC(=O)NC(=O)C2CCCCC2)C(C)C)cc1	-16%	10%	.	0%	2%	-9%	.	.
Cc1ccccc1NS(=O)(=O)c1ccc(C(=O)N2CCCC2)cc1	-14%	2%	.	-24%	4%	9%	.	.
Cc1cc(N2CCCCC2)nc2c(C)cccc12	6%	20%[46.1 µM]	.	18%	1%	-22%	.	1%
Cc1nn(-c2ccc(N3CCCC3)nn2)c(C)c1CCC(=O)NCc1ccc(F)cc1	-1%	.	-0.1%	23%[46.1 µM]	.	.	-5%	.
CC1CCCCN1C(=O)CCNC(=O)Cn1cnc2ccccc2c1=O (stereo not drawn)	-1%	3%[46.1 µM]	.	12%	2%	7%	.	-10%
Cc1cc(C)c2nc(SCC(=O)NC(=O)c3cccn3C)cc(C)c2c1	-16%	?	.	-5%	-2%	18%	.	-11%
O=C(N=Nc1c(O)[nH]c2ccccc12)c1ccccc1NS(=O)(=O)c1cccs1	3%	?	-3.4%	-2%	-3%	18%	?	-6%
CCOc1ccc(C(C)=O)cc1Cc1c(O)nc(N)[nH]c1=O	.	10%	-3.1%	5%	20%	.	7%	22%
Cc1oc2ncnc(N3CCCCC3)c2c1C(=O)N1CCN(c2cccc(C(F)(F)F)c2)CC1	0%	.	-11%	8%[46.1 µM]	.	.	?	.
COc1cccc(/C(C)=N/Nc2ncc(Cl)cc2Cl)c1	-7%	3%	-6.9%	16%	-32%	-24%	-2%	-1%
COc1cc(OC)c(C(=O)Nc2ccc3ccccc3c2)cc1OC	65%[activator]	-4%	.	-2%	-6%	-16%	.	-3%
CC(=O)c1cc(-c2ccccc2)n(CC(=O)Nc2cccc(C)c2C)c1C	?	-9%	-1.0%	1%	0%	15%	12%	4%
COc1cccc2cc(-c3nc4sc(C(=O)Nc5ccc(F)cc5F)c(C)c4c(=O)[nH]3)c(=O)oc12	7%	.	4.0%	-3%[46.1 µM]	.	.	-7%	.
CC(C)(C)c1ccc(C(=O)NCc2ccccc2)cc1	50%[activator]	.	.	.	0%	-2%	.	0%
Cc1cccc(C(=O)Nc2ccc(N3CCN(S(C)(=O)=O)CC3)cc2)c1	35%[activator]	?	.	32%[46.1 µM]	1%	-8%	.	1%
O=C1CN(S(=O)(=O)c2ccccc2)CCN1S(=O)(=O)c1ccccc1	-18%	?	-3.1%	-19%	10%	-4%	3%	0%
O=c1c2ccccc2n2c(-c3ccc(F)cc3)nnc2n1Cc1ccccc1	-20%	-22%	0.5%	7%	11%	-14%	-3%	7%
CN(C)c1ccc(-n2cccc2/C=C2/SC(=Nc3ccc(F)cc3)NC2=O)cc1	.	?	2.5%	?	1%	-10%	10µM*	6%
O=S1(=O)[C@H]2C[C@@H]3C=C[C@@]2(CN1Cc1cccc(F)c1)O3	-9%	.	.	.	15%	14%	.	14%
CCn1c(C(O)c2cccc(OC)c2OC)nc2ccccc21 (stereo not drawn)	-17%	-19%	0.4%	-2%	-2%	-20%	3%	?
COC(=O)C/C(O)=C(/N=Nc1cccc(C(F)(F)F)c1)C(=O)OC	13%	6%[46.1 µM]	.	25%[46.1 µM]	0%	3%	.	-1%
COc1ccc(NC(=O)C(=O)NNC(=O)C(C)Oc2ccc(Cl)cc2Cl)cc1 (stereo not drawn)	-1%	?	.	?	-3%	1%	.	.
O=C(CNC(=O)c1ccccc1Cl)OCc1cc(=O)n2ccsc2n1	-22%	.	25µM*	-3%[46.1 µM]	.	.	13µM*	.
Cc1c(NC(=O)CC(=O)Nc2c(C)n(C)n(-c3ccccc3)c2=O)c(=O)n(-c2ccccc2)n1C	.	-2%&14%	2.2%	2%	10%	-6%	-5%	1%
COc1ccc(-c2coc3cc(OC(C)=O)ccc3c2=S)cc1	35%[activator]	?	.	?	.	7%	.	.
Cc1ccc(N=C2SC(C(=O)Nc3ccc(OC(F)(F)F)cc3)C(N)=C2C(=O)Nc2c(C)cc(C)cc2C)cc1 (stereo not drawn)	?	?	-3.8%	?	20%	-6%	-4%	?
Cc1nn(-c2ccccc2)c(C)c1C(=O)NCc1ccc(S(N)(=O)=O)cc1	-14%	-22%[46.1 µM]	.	.	0%	3%	.	0%
Clc1cccc(Cl)c1CSc1nnc(-c2sccc2-n2cccc2)o1	-20%	?	1.9%	1%	-10%	-17%	-22%	-4%
CCOC(=O)c1c(C)n(C)c2cc(Br)c(O)c(O)c12	15%	.	.	.	0%	1%	.	0%
COc1ccc(C(=O)Nc2nnc(SCc3cc(=O)n4cc(Cl)ccc4n3)s2)cc1	4%	.	3.2%	18%[46.1 µM]	.	.	-4%	.
O=C(NC1(C(F)(F)F)Oc2ccccc2O1)N1CCC2(CC1)OCCO2	7%	?	0.7%	-25%[14.3 µM]	-6%	3%	-11%	-4%
O=C(CCc1ccc(S(=O)(=O)NC2CCCCC2)cc1)NCc1ccccc1	16%	?	0.6%	?	4%	-5%	0%	-6%
Cc1cccc(NS(=O)(=O)c2ccc3c(c2)CCN3C(=O)C2CC2)c1C	-10%	?	-5.1%	-3%[46.1 µM]	.	.	-19%	.
Cc1cccc(N2CCN(c3cc(C)nc4nnnn34)CC2C)c1 (stereo not drawn)	-24%	2%	0.3%	7%	3%	12%	-12%	8%
COc1ccc(OCc2nc3c4cc(OC)c(OC)cc4nc(=S)n3[nH]2)cc1	-7%	?	-1.6%	-6%	6%	6%	?	2%
Cc1cc(O)cc(O)c1C=NCc1ccco1	-15%	?	-4.0%	?	-33%	9%	5%	4%
Cc1ccc(CNC(=O)c2ccc3c(c2)CCN3S(=O)(=O)c2ccc(Br)cc2)cc1	-21%	?	-1.0%	-13%[46.1 µM]	.	.	?	.
CCN(CC)C(=O)Nc1ccc2c(c1)N(Cc1ccccc1)C(=O)c1ccccc1S2	44%[activator]	?	-9.2%	-12%[46.1 µM]	.	.	-8%	.
Cc1ccc(OCC(=O)c2cc(C)c(C)cc2C)c([N+](=O)[O-])n1	-18%	-1%	-1.6%	-5%	-4%	-9%	-3%	-8%
O=C(NCCCn1ccnc1)c1cccc(S(=O)(=O)Nc2ccccc2F)c1	.	-1%	4.1%	11%	4%	11%	-4%	-4%
COc1ccccc1NC(=O)Cn1c(=O)n(Cc2nc(C)no2)c(=O)c2cc3c(cc21)OCO3	-12%	.	-2.7%	2%[46.1 µM]	.	.	-6%	.
Cc1nc2c(C)cccn2c1C(=O)c1ccccc1	-7%	.	-2.2%	.	-2%	?	-7%	-13%
Cc1ccc(-c2csc(NC(=O)CN3CC(C)OC(C)C3)n2)cc1 (stereo not drawn)	?	-37%	.	?	3%	11%	.	7%
Cc1ccccc1NC(=O)CCn1c(=O)oc2ccccc21	-7%	.	1.0%	.	1%	-4%	3%	?
CCO[C@@H]1OC(C(=O)Nc2ccccc2)=C[C@H](c2coc3ccccc3c2=O)[C@H]1CCCO	-23%	.	.	.	1%	-8%	.	-2%
CC(=O)Nc1n[nH]c(-c2ccc(C)cc2)c1C	10%	9%	.	12%	0%	10%	.	4%
N#CCC(=O)Nc1ccccc1C(=O)O	-14%	6%	2.4%	20%	9%	-14%	-7%	0%
Cc1cc(=O)oc2cc(OCC(=O)N/N=C/c3ccccc3O)ccc12	-3%	2%[46.1 µM]	.	-9%[46.1 µM]	-3%	-5%	.	2%
Cc1ccc(C(=O)c2nccn2C)cc1C	31%[activator]	?	.	5%[46.1 µM]	-6%	-6%	.	-3%
Cc1cccc(C2=NN(c3ccc(Br)cc3)[C@@H](C(=O)N3CCOC3=O)[C@@H]2c2ccc(Cl)cc2)c1	0%	.	3.0%	.	1%	-2%	8.9µM*	.
(cont.)
SMILES	2A StopGo	MARV entry inh	Cruzain Triton	LASV entry inh	SARS PLpro yeast	RE007 growth inh	Cruzain noTriton	NS1 function inh
CCOC(=O)N1CCN(C(=O)c2ccc3c(=O)n(CCc4ccccc4)c(=O)[nH]c3c2)CC1	?	1%&1%	0.9%	15%	-1%	4%	0%	-7%
COc1cccc(NC(=O)CSc2nnc(-c3cc(C)[nH]n3)n2N)c1	-11%	.	.	.	18%	0%	.	8%
O=C(Nc1ccc(Cl)cn1)c1cccc(OCc2ccccc2)c1	20%	-5%[46.1 µM]	.	.	-3%	-15%	.	-6%
CCOC(=O)c1cnc(-n2nc(C)cc2C)nc1N1CC(C)OC(C)C1 (stereo not drawn)	-15%	7%	.	-13%	.	12%[3.69 µM]	.	0%
O=C(COC(=O)CNC(=O)c1ccccc1F)NC1CC1	-5%	9%[46.1 µM]	.	14%	7%	-16%	.	.
CCCc1ccc(OCC(=O)Nc2scc(-c3cccs3)c2C(=O)OC)cc1	-19%	8%[46.1 µM]	-7.0%	-4%[46.1 µM]	.	.	-8%	.
CC1CCN(C(=O)c2ccc(NS(=O)(=O)c3ccc4[nH]c(=O)[nH]c4c3)cc2)CC1	-15%	3%[46.1 µM]	.	19%	-3%	20%	.	.
CC1=C(CO)C(=O)OC([C@@H](C)C2CC[C@H]3C4C[C@H]5O[C@]56[C@@H](O)C=CC(=O)[C@]6(C)C4CC[C@]23C)C1 (stereo partly drawn)	7.1µM*	.	.	.	1%	15%	.	-2%
NNC(=O)[C@H]1C[C@@H]1c1ccccc1	-1%	?	-1.4%	?	2%	-6%	7%	-10%
COc1ccc(/C(N)=N/OC(=O)Cc2cccs2)cc1	11%	?	-5.3%	?	-2%	-1%	0%	-4%
Clc1cc(Cl)c2nc(N3CCCCC3)sc2c1	39%[activator]	9%	-3.7%	?	0%	?	-4%	-5%
Cc1cc(NC(=O)CCN2C(=O)C3C4C=CC(C4)C3C2=O)c2ccccc2n1 (stereo not drawn)	0%	?	0.6%	-2%	-2%	-20%	6%	-2%
COc1ccc(CC(=O)OCC(=O)Nc2ncc(Cl)c(C)c2Cl)cc1	-15%	-1%	.	?	-2%	7%	.	.
Cc1cc(NC(=O)COC(=O)c2ccccc2O)no1	11%	7%	.	6%	-6%	9%	.	.
COc1cc(C(=O)O[C@H]2CC(C)=CC[C@@]3(C)CC[C@@](O)(C(C)C)[C@H]23)ccc1O	-14%	.	.	.	-5%	?	.	6%

From PubChem
